Polio RdRp inh = inhibitors of poliovirus RNA polymerase binding and polymerization. actives 0.66% (n = 150,000). AID 588519. % elongation, % (compound at 16.7 µg/mL). poliovirus polymerase elongation, fluorescence polarization; stronger effect = lower value; in the data active means % elongation below about 90%; further: some results filed as inactive read as strong as hits
Target sequence (P03300 1749-2209 limits assumed): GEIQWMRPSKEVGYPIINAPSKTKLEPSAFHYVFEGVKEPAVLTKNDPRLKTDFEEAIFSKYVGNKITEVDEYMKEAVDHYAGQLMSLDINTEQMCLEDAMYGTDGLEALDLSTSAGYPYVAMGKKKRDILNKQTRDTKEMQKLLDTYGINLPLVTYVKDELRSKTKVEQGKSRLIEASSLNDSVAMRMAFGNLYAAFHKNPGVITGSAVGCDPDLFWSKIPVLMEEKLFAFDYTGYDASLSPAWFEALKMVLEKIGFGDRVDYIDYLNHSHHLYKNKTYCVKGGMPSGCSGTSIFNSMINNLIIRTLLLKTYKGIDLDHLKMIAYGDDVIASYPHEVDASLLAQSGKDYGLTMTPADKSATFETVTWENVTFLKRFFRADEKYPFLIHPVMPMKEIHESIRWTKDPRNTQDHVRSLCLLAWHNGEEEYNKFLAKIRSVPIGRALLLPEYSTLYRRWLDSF
Polio RdRp inh intensity = further read-out of Polio RdRp inh, marked with its call; % elongation; measured here: total intensity read-out; formula for this scale not given here;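 total fluorescence in place of polarization; lower means less elongation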
Active calls of the source: *. This is a subset; the hit share may differ from the screen's.

The line under a structure holds: Polio RdRp inh | Polio RdRp inh intensity
COc1cc(C2N=C(N)Nc3nc4ccccc4n32)ccc1OCCC(C)C (stereo unspecified)
  100.0 | 103.0
Cc1ccc(C)c(NC(=O)C(C)n2c(=O)cc(C(F)(F)F)c3c(C)nn(C)c32)c1 (stereo unspecified)
  105.0 | 114.0
O=C(CCn1c(=O)c2sccc2n(Cc2ccccc2F)c1=O)NCc1ccc2c(c1)OCO2
  105.0 | 110.0
Cc1[nH]n(-c2ccccc2)c(=O)c1C(c1cc(Cl)ccc1O)c1c(C)[nH]n(-c2ccccc2)c1=O
  103.0 | 103.0
CCc1ccccc1N(C)C(=O)Cc1c(C(=O)O)c(C)cn1C
  108.0 | 110.0
COc1cccc(-n2cc(C(=O)Oc3ccc(F)cc3)c3ccccc3c2=O)c1
  110.0 | 112.0
CCCOc1ccc(CNC(=O)c2ccc3c(c2)N(Cc2ccccc2)CCS3)cc1
  107.0 | 103.0
O=c1nc2sc3ccccc3n2c(=O)n1-c1ccc(Cl)c(Cl)c1
  106.0 | 109.0
CCOC(=O)N1CCC2(CC1)OC(=O)C(C)=C2C(=O)NCc1ccccc1OC
  112.0 | 112.0
COc1cccc(-n2c(=O)c3sc4ccccc4c3n(Cc3c(F)cccc3Cl)c2=O)c1
  107.0 | 109.0
COc1ccc(NC(=O)c2sc3nc4c(cc3c2N)CCCCCC4)cc1Cl
  112.0 | 114.0
COc1ccc(CNC(=O)c2ccc3nc(CCc4ccccc4)oc3c2)c(OC)c1
  113.0 | 96.0
Cc1oc2ccc(O)c(CN3CCOCC3)c2c1C(=O)Nc1cccc(Cl)c1C
  107.0 | 110.0
Cc1ccc(C(=O)N2CCC(N3CCN(Cc4ccc(F)cc4)C(=O)C3=O)CC2)cc1
  102.0 | 106.0
Cc1ccc(-n2ncc(C(=O)N3CCN(Cc4ccccc4)CC3)c2C2CCN(C(=O)OC(C)(C)C)CC2)cc1
  104.0 | 100.0
Cc1ccc(NC(=O)C(Cc2ccccc2)n2cccc2)cc1 (stereo unspecified)
  104.0 | 108.0
O=C(NCc1cccnc1)C1CCN(Cc2cc3ccccc3n2Cc2cccc(Cl)c2)CC1
  105.0 | 103.0
CCc1ccc(-c2nc3cc(NC(=O)c4ccc(F)cc4)ccc3o2)cc1
  109.0 | 112.0
COc1ccc(-n2nnc(-c3nsc(NC(=O)c4ccc(C)c(C)c4)n3)c2C)cc1Cl
  107.0 | 100.0
COCCCNC(=O)c1nn(-c2ccc(C)cc2)c(=O)n(C)c1=O
  106.0 | 112.0
CCC(Oc1ccccc1)C(=O)Nc1ccc(O)c(-c2nc3cc(C)ccc3o2)c1 (stereo unspecified)
  110.0 | 110.0
CCOc1ccc(Nc2nn(-c3ccc(OC(F)(F)F)cc3)nc2C(C)=O)cc1
  114.0 | 104.0
Cc1cccc(NC(=O)C(NS(=O)(=O)c2ccc3c(c2)oc(=O)n3C)C(C)C)c1 (stereo unspecified)
  110.0 | 108.0
CCOC(=O)c1c(-c2ccccc2)oc2ccc(NS(=O)(=O)c3cc(C)c(C)cc3C)cc12
  104.0 | 107.0
Cc1ccc(-n2nc(C(=O)NCc3ccc(F)cc3Cl)c3c4ccccc4n(C)c3c2=O)cc1
  100.0 | 105.0
Cc1ccc(OCCCCn2nnc3sc4c(c3c2=O)CCCC4)cc1
  103.0 | 108.0
O=C(CCSCc1cccc(Cl)c1)NCc1ccc(F)cc1Cl
  107.0 | 111.0
Cc1ccc(NC(=O)c2sc3nc4c(cc3c2N)CN(Cc2ccccc2)CC4)cc1
  110.0 | 111.0
Cc1ccccc1CN1C(=O)C(C)N=C(c2ccccc2)c2ccccc21 (stereo unspecified)
  107.0 | 112.0
CC(C)(C)OC(=O)N1CCC(c2c(C(=O)N3CCN(c4ccccn4)CC3)cnn2-c2ccccc2Cl)CC1
  111.0 | 110.0

Three entries from above, sorted by length of the SMILES, descending:
The line under a structure holds: Polio RdRp inh | Polio RdRp inh intensity
CCOC(=O)c1c(-c2ccccc2)oc2ccc(NS(=O)(=O)c3cc(C)c(C)cc3C)cc12
  104.0 | 107.0
CCC(Oc1ccccc1)C(=O)Nc1ccc(O)c(-c2nc3cc(C)ccc3o2)c1 (stereo unspecified)
  110.0 | 110.0
O=C(CCSCc1cccc(Cl)c1)NCc1ccc(F)cc1Cl
  107.0 | 111.0

Continuation:
The line under a structure holds: Polio RdRp inh | Polio RdRp inh intensity
O=C(Cn1nc(-c2ccccc2)nc(Cc2ccccc2)c1=O)Nc1ccccc1
  102.0 | 107.0
Cc1ccc(C(=O)n2nc(C)c(S(=O)(=O)N3CCCCCC3)c2C)cc1
  111.0 | 111.0
O=C(Cn1nc2c(cc1=O)CCCC2)Nc1ccccc1C(F)(F)F
  106.0 | 116.0
Cc1ccc(-c2nc3ccc(Cl)cn3c2Nc2ccc3c(c2)OCCO3)s1
  104.0 | 103.0
COc1cc(OC)c(NC(=O)c2cc3c(=O)oc4ccc(C)cc4c3s2)cc1Cl
  104.0 | 102.0
CC1=C(C(=O)NCc2cccc(F)c2)C2(CCCCC2)OC1=O
  100.0 | 106.0
COC(=O)c1cc2oc3ccccc3c2n1CC(=O)Nc1ccc(N(C)C)cc1
  105.0 | 108.0
Cc1ccc(S(=O)(=O)c2nnn3c2nc(N2CCC(C)CC2)c2cc(Cl)ccc23)cc1C
  100.0 | 106.0
O=C(COc1cc(Cl)ccc1Cl)Nc1ccc(Cl)cc1C(=O)c1ccccc1
  102.0 | 104.0
COc1ccc(C2C(C(=O)Nc3ccccc3)=C(C)Nc3c(C(=O)Nc4ccccc4)cnn32)cc1 (stereo unspecified)
  104.0 | 94.0
CCCOc1c(Cl)cc(C(=O)N(Cc2cccc(OC)c2)C2CCS(=O)(=O)C2)cc1Cl (stereo unspecified)
  108.0 | 95.0
CCOC(=O)c1cc(-c2ccc(C)cc2)n(CC(=O)Nc2ccc(OC)cc2OC)c1C
  105.0 | 111.0
O=C(CCNS(=O)(=O)c1cccc2nonc12)Nc1ccc(F)cc1
  108.0 | 109.0
CC(NC(=O)C1CCN(S(=O)(=O)c2ccc(F)cc2)CC1)c1ccccc1 (stereo unspecified)
  107.0 | 109.0
CCOC(=O)N1CCN(C(=O)c2ccc3c(c2)N(Cc2ccccc2F)C(=O)c2ccccc2S3(=O)=O)CC1
  106.0 | 107.0
CCCCNC(=O)CSc1nc2cc3c(cc2c(=O)n1Cc1ccc(C(=O)NCCc2ccc(OC)c(OC)c2)cc1)OCO3
  109.0 | 105.0
CCN1CCN(c2csc3ccc(Cl)cc3c2=O)CC1
  114.0 | 108.0
COc1ccccc1-c1nnc(C2CCN(C(=O)c3cccc(C)c3)CC2)o1
  106.0 | 106.0
Cc1cc(Nc2cccc(Cl)c2)nc2ccc(NC(=O)c3cccnc3)cc12
  107.0 | 112.0
COc1cc(C(=O)Nc2cc(C)c(O)c(-c3nc4ccccc4s3)c2)cc(OC)c1OC
  103.0 | 104.0
O=C(COc1ccc(Cl)cc1)Nc1nnc(S(=O)(=O)N2CCc3ccccc32)s1
  112.0 | 117.0
CCOc1ccc(OCC)c(NC(=O)CCC(=O)N2CCOc3ccccc32)c1
  109.0 | 94.0
COc1cccc(NC(=O)CSc2nnc(-c3cccc(OC)c3)o2)c1
  110.0 | 114.0
CCN(CC)CCNC(=O)CN1N=C(c2ccc(OC)cc2)CCC1=O
  101.0 | 99.0
Cc1ccc(-c2noc(-c3ccccc3NC(=O)C3CC(=O)N(c4ccc(C)cc4)C3)n2)cc1 (stereo unspecified)
  100.0 | 105.0
O=C(COCc1cc(-c2ccc(F)cc2)on1)Nc1cccc(Cl)c1Cl
  114.0 | 113.0
Cc1ccc(-c2nnc(Nc3ccc(Br)cc3)c3ccccc23)cc1S(=O)(=O)N1CCOCC1
  106.0 | 113.0
CCc1ccc2occ(CC(=O)Nc3nnc(SC)s3)c2c1
  120.0 | 119.0
CC1=C(C(=O)Nc2cccnc2)C(c2ccc(Cl)cc2)n2nc(-c3ccccc3)nc2N1 (stereo unspecified)
  105.0 | 110.0
COc1ccc(CNC(=O)c2sc3nc[nH]c(=O)c3c2C)cc1
  111.0 | 117.0
CCn1c(C)c(C)c2cc(C(=O)NCCc3ccc(C)cc3)ccc21
  111.0 | 109.0
Cc1ccc2c(=O)cc(C(=O)Nc3sc4c(c3C(=O)NCc3ccccc3)CCCC4)oc2c1C
  104.0 | 108.0
CCNC(=O)c1c(NC(=O)Cc2coc3ccc(CC)cc23)sc2c1CCCC2
  120.0 | 120.0
O=C(NCc1ccc(Cl)cc1)C1CCCN(c2ncnc3onc(-c4ccc(F)cc4)c23)C1 (stereo unspecified)
  105.0 | 107.0
O=C(Nc1ccc(Cl)cc1)C1CCCN(S(=O)(=O)c2ccc3[nH]c(=O)ccc3c2)C1 (stereo unspecified)
  118.0 | 106.0
COc1ccc(CNC(=O)CN(c2ccc(OC)cc2)S(=O)(=O)c2c(C)[nH]c(=O)[nH]c2=O)cc1
  103.0 | 105.0
CCC1CCCCN1CCCNC(=O)c1ccc2c(c1)c(C)c(C)n2CC (stereo unspecified)
  104.0 | 112.0
Cc1c(NS(=O)(=O)c2cccc(C(=O)O)c2)c(=O)n(-c2ccccc2)n1C
  105.0 | 108.0
Cc1ccc(OCCn2nnc3sc4c(c3c2=O)CCC(C(C)(C)C)C4)cc1 (stereo unspecified)
  102.0 | 106.0
O=C(Nc1ccc2oc(-c3cccnc3)nc2c1)c1ccc(-c2ccc(Cl)cc2)o1
  106.0 | 113.0
COc1ccc(-n2c(SCc3ccccc3F)nc3c([nH]c4ccccc43)c2=O)cc1
  98.0 | 94.0
O=S(=O)(c1ccc(Cl)cc1)c1nc(-c2ccccc2)oc1N1CCN(c2ccccc2)CC1
  107.0 | 109.0
CCOc1cc(C2CC(=O)Nc3cc4c(cc32)OCCO4)ccc1O (stereo unspecified)
  108.0 | 110.0
COc1ccc(C(C)C)cc1S(=O)(=O)NCCc1c(C)[nH]c2ccc(C)cc12
  105.0 | 105.0
O=C(Cn1c2ncccc2c(=O)n1-c1ccccc1)Nc1ccc(Cl)cc1C(F)(F)F
  108.0 | 104.0

Profiles as entered above. Values in the order: Polio RdRp inh, Polio RdRp inh intensity
Listed for `O=S(=O)(c1ccc(Cl)cc1)c1nc(-c2ccccc2)oc1N1CCN(c2ccccc2)CC1` → 107.0, 109.0
Listed for `CCNC(=O)c1c(NC(=O)Cc2coc3ccc(CC)cc23)sc2c1CCCC2` → 120.0, 120.0

Additional compounds follow.
The line under a structure holds: Polio RdRp inh | Polio RdRp inh intensity
CCN(C(=O)CCS(=O)(=O)c1cc2[nH]c(=O)c(=O)[nH]c2cc1C)c1ccccc1
  99.0 | 100.0
CCOc1ccc(N2CC(c3nc(-c4cc(OC)c(OC)c(OC)c4)no3)CC2=O)cc1 (stereo unspecified)
  109.0 | 114.0
COc1cccc(NC(=O)c2cnc(SCC(=O)N3CCCc4ccccc43)n(C)c2=O)c1
  103.0 | 111.0
CCOC(=O)c1ccccc1NC(=O)N1CCC(CN2CCOCC2)CC1
  108.0 | 110.0
CCc1ccc(NC(=O)Cn2nnc(C(=O)NCCc3ccccc3)c2N)cc1
  114.0 | 116.0
COc1ccc2nc(N3CCN(C(=O)c4ccco4)CC3)sc2c1
  111.0 | 113.0
CCCOC(=O)c1cccc(Nc2nc(CCC)cc(=O)[nH]2)c1
  106.0 | 105.0
Cc1cccc(NC(=O)CCCn2nc(C)c3c(C)n(-c4ccccc4)nc3c2=O)c1C
  103.0 | 105.0
CC(=O)c1ccc(NC(=O)c2sc(-n3nc(C)c(CCC(C)C)c3C)nc2C)cc1
  101.0 | 103.0
COc1ccc(CNC(=O)c2cc(Nc3ccc(OC)cc3OC)nc3ccccc23)cc1
  112.0 | 111.0
COc1ccc(Cl)c2sc(NC(=O)c3ccc(S(=O)(=O)N4CCOCC4)cc3)nc12
  104.0 | 113.0
COc1cccc(NC(=O)C(=O)NCC(c2ccc3c(c2)OCO3)N2CCOCC2)c1 (stereo unspecified)
  111.0 | 113.0
CCC1CN(C(=O)Nc2cc(C)cc(C)c2)c2ccccc2O1 (stereo unspecified)
  107.0 | 102.0
CC(C)CN(CC(C)C)c1nc(-c2ccc(Cl)cc2)nc2ccccc12
  106.0 | 109.0
Cc1oc2ccc(O)c(CN3CCCCCC3)c2c1C(=O)Nc1cccc(Cl)c1C
  106.0 | 98.0

A second format for part of the listing above.
compound | Polio RdRp inh | Polio RdRp inh intensity
COc1cccc(NC(=O)c2cnc(SCC(=O)N3CCCc4ccccc43)n(C)c2=O)c1 | 103.0 | 111.0
CCOC(=O)c1ccccc1NC(=O)N1CCC(CN2CCOCC2)CC1 | 108.0 | 110.0
CCc1ccc(NC(=O)Cn2nnc(C(=O)NCCc3ccccc3)c2N)cc1 | 114.0 | 116.0
COc1ccc2nc(N3CCN(C(=O)c4ccco4)CC3)sc2c1 | 111.0 | 113.0

Next part
The line under a structure holds: Polio RdRp inh | Polio RdRp inh intensity
COc1cccc(NC(=O)Cn2nnc(C(=O)NCc3ccc4c(c3)OCO4)c2N)c1
  107.0 | 114.0
CCOC(=O)c1c(C)sc(-c2c(-c3cc(C)ccc3C)[nH]c3c2c(=O)[nH]c(=O)n3C)c1O
  123.0 | 137.0
Cc1ccc(C(=O)CSc2nc3cc(C(=O)NC4CCCC4)ccc3c(=O)n2CC2CCCO2)cc1 (stereo unspecified)
  111.0 | 113.0
Cc1cc(=O)n(CC(=O)Nc2ccc([N+](=O)[O-])cc2)c(-n2nc(C)cc2C)n1
  111.0 | 113.0
COc1ccc(N2CCN(C(CNC(=O)CC(C)C)c3ccc4c(c3)OCO4)CC2)cc1 (stereo unspecified)
  105.0 | 111.0
Cc1ccc(C(=O)COC(=O)CCCC(=O)Nc2cc(C(F)(F)F)ccc2Cl)cc1C
  107.0 | 112.0
CCN1CCSc2ccc(C(=O)NCc3cccc(F)c3)cc21
  105.0 | 111.0
Cc1ccc(N2CCN(c3ncnc4onc(-c5ccc(F)cc5)c34)CC2)c(C)c1
  111.0 | 112.0
COc1ccc(OC)c(NC(=O)CSc2nc3ccccc3nc2N2CCCCC2)c1
  107.0 | 110.0
COc1cccc(C(=O)Nc2ccccc2-c2nc(-c3ccc(C)cc3)no2)c1
  110.0 | 112.0
Cc1ccc(C)c(N(C)C(=O)CCNC(=O)Cn2cnc3ccccc3c2=O)c1
  111.0 | 112.0
COc1cccc(NC(=O)C(=O)NCCc2csc3nc(-c4ccccc4C)nn23)c1
  114.0 | 115.0
